High-throughput results deposited in PubChem BioAssay by Broad Institute.
Vaccinia stage: blocks a specific stage of Vaccinia orthopoxvirus infection, primary screen, cell-based, single point. Vaccinia-infected cells, mCherry/Venus stage reporter fluorescence; hits give low values; some inactives read as strong as hits. AID 1053133, 2014. actives 0.01% (n = 89,000). activity change (mCherry), % (concentration not given with the values);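 active = mCherry past -33% and 40 or more points under the early reporter, replicates agreeing; inconclusive = past -33% without that gap or agreement; tested in A549 cells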;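 note: scaled between vehicle wells and reference inhibitor wells; 23 nL library stock went into each well; one replicate is shown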
Vaccinia stage Venus: also measured in Vaccinia stage; calls as there; activity change (Venus), %; measured here: Venus reporter, other viral stage;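 negative = less Venus signal; first of two replicates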
An asterisk follows results filed as active; ? = inconclusive; / = no result given. Only part of the results is shown, so the mix of outcomes need not match the whole.

SMILES	Vaccinia stage	Vaccinia stage Venus
COc1ccc(NC(=O)N(C)C[C@H]2Oc3cc(-c4cccc(C(=O)N(C)C)c4)ccc3S(=O)(=O)N([C@H](C)CO)C[C@H]2C)cc1	17	13
CN(C)CC(=O)Nc1ccc2c(c1)[C@@H]1C[C@H](CC(=O)NCC3CC3)O[C@H](CO)[C@@H]1O2	0	4
C[C@H](CO)N1C[C@H](C)[C@H](CN(C)S(=O)(=O)c2ccc(F)cc2)Oc2ccc(NC(=O)Cc3ccccc3)cc2CC1=O	-3	-8
COc1ccc(-c2ccc3c(c2)[C@@H]2[C@@H](CCN2S(=O)(=O)c2ccc(F)cc2)[C@@H](CO)N3C)cc1	?	/
CC(=O)N(C)C[C@H]1Oc2ncc(-c3ccc(F)cc3)cc2C(=O)N([C@@H](C)CO)C[C@H]1C	0	11
C[C@@H]1CN([C@@H](C)CO)S(=O)(=O)c2ccc(C#CC3CC3)cc2O[C@H]1CN(C)Cc1ccccc1F	?	/
O=C(C[C@@H]1CC[C@H](NC(=O)c2ccncc2)[C@@H](CO)O1)Nc1ccc(-c2ccccc2)cc1	-18	-6
COc1ccc(C(=O)Nc2ccc3c(c2)C(=O)N(C)C[C@H](OC)[C@H](C)CN[C@H](C)CO3)cc1	-2	3
O=C(C[C@@H]1CC[C@@H]2[C@H](COC[C@@H](O)CN2Cc2ccccc2)O1)NCc1ccccc1Cl	-12	-16
C[C@@H]1CCCCO[C@H](CN(C)C(=O)Nc2ccc(C(F)(F)F)cc2)[C@H](C)CN([C@@H](C)CO)C(=O)c2cc(NC(=O)Nc3ccccc3)ccc2O1	5	10
C[C@@H]1CCCCO[C@H](CN(C)C(=O)Cc2ccccc2)[C@@H](C)CN([C@H](C)CO)C(=O)c2cc(NC(=O)CCCN(C)C)ccc2O1	25	19
CC(C)CC#Cc1ccc([C@@H]2[C@@H](CO)N3CCCCN(S(=O)(=O)c4ccc(F)cc4)C[C@H]23)cc1	-30	-29
COc1ccc(S(=O)(=O)Nc2cccc3c2O[C@@H](CN(C)Cc2ccc(Oc4ccccc4)cc2)[C@@H](C)CN([C@@H](C)CO)C3=O)cc1	-30	-21
CCC(=O)Nc1ccc2c(c1)C(=O)N(C)[C@@H]1CC[C@@H](CC(=O)NCc3ccc(OC)cc3)O[C@@H]1CO2	-8	-7
C[C@@H]1CCCCO[C@H](CN(C)Cc2ccc(C(F)(F)F)cc2)[C@@H](C)CN([C@H](C)CO)C(=O)c2cc(N(C)C)ccc2O1	-17	-19
CC(C)NC(=O)Nc1ccc2c(c1)C(=O)N([C@H](C)CO)C[C@H](C)[C@@H](CN(C)C(=O)Nc1ccc(C(F)(F)F)cc1)OCCCC[C@H](C)O2	-9	-6
CCCNC(=O)N1[C@@H](C#N)[C@H](c2ccc(-c3cccc(OC)c3)cc2)[C@@H]1CO	?	/
OC[C@@H]1CC[C@@H]2O[C@H](CCc3ccc(-c4ccc(F)cc4)cc3)[C@@H](n3cc(C4CC4)nn3)C[C@@H]2O1	14	9
CCC(=O)N(C)C[C@@H]1Oc2cc(C#Cc3ccccn3)ccc2S(=O)(=O)N([C@@H](C)CO)C[C@H]1C	7	3
C[C@H](CO)N1C[C@H](C)[C@H](CN(C)S(=O)(=O)c2ccccc2)Oc2ccc(NS(=O)(=O)c3cn(C)cn3)cc2C1=O	7	-1
Cc1ccc(S(=O)(=O)N(C)C[C@@H]2OCCCC[C@@H](C)Oc3ccc(NS(=O)(=O)c4ccccc4)cc3C(=O)N([C@@H](C)CO)C[C@H]2C)cc1	?	/
CNC[C@H]1Oc2c(NC(=O)C3CCOCC3)cccc2C(=O)N([C@@H](C)CO)C[C@H]1C	1	-3
COCCNC(=O)C[C@H]1CC[C@@H]2[C@H](COc3ccc(NC(=O)COC)cc3C(=O)N2C)O1	15	12
CCC(=O)N(C)C[C@H]1Oc2cc(C#Cc3ccncc3)ccc2S(=O)(=O)N([C@@H](C)CO)C[C@H]1C	-13	-1
COc1cccc(C#Cc2ccc3c(c2)[C@@H]2[C@@H](CCN2C(=O)CC2CC2)[C@@H](CO)N3)c1	14	12
(listing goes on)
SMILES	Vaccinia stage	Vaccinia stage Venus
CCOC(=O)N(C)C[C@H]1OCc2cnnn2CCCC(=O)N([C@@H](C)CO)C[C@@H]1C	21	16
C[C@@H]1CN([C@@H](C)CO)S(=O)(=O)c2ccc(C3=CCCCC3)cc2O[C@H]1CN(C)C(=O)C1CCC1	-28	-23
Cc1noc(C)c1S(=O)(=O)Nc1cccc2c1O[C@@H](CN(C)Cc1ccc3c(c1)OCO3)[C@@H](C)CN([C@@H](C)CO)C2=O	5	2
COc1ccc(CNC(=O)C[C@@H]2CC[C@H](NC(=O)Nc3ccc4c(c3)OCO4)[C@@H](CO)O2)cc1	-1	5
C[C@H](CO)N1C[C@H](C)[C@@H](CN(C)C(=O)c2ccccc2)OCCCC[C@H](C)Oc2ccc(NS(C)(=O)=O)cc2C1=O	3	7
Cc1noc(C)c1S(=O)(=O)Nc1cccc2c1O[C@H](CN(C)Cc1ccc(Oc3ccccc3)cc1)[C@H](C)CN([C@@H](C)CO)C2=O	-19	-9
Cc1cccc(-c2ccc([C@H]3[C@H](CO)N4CCCCN(C(=O)c5cccnc5)C[C@@H]34)cc2)c1	7	1
C[C@H](CO)N1C[C@H](C)[C@H](CN(C)Cc2ccncc2)Oc2ccc(NC(=O)CCN3CCOCC3)cc2CC1=O	1	-6
C[C@@H]1CCCCO[C@H](CN(C)C)[C@@H](C)CN([C@H](C)CO)C(=O)c2cc(NC(=O)CCCN(C)C)ccc2O1	1	-1
O=C(C[C@H]1CC[C@H]2[C@@H](COC[C@H](O)CN2Cc2ccccc2F)O1)N[C@@H]1CCN(Cc2ccccc2)C1	-8	-7
C[C@@H]1CN([C@@H](C)CO)C(=O)c2cc(NC(=O)CCN3CCOCC3)ccc2O[C@H]1CN(C)C(=O)Nc1ccc2c(c1)OCO2	34	16
COc1ccccc1C(=O)Nc1ccc2c(c1)C(=O)N(C)[C@H]1CC[C@H](CC(=O)Nc3cc(F)ccc3F)O[C@@H]1CO2	-2	-3
CCC(=O)Nc1ccc2c(c1)C(=O)N(C)[C@@H]1CC[C@H](CC(=O)NC3CCCC3)O[C@@H]1CO2	2	7
CC(C)c1cn(CC[C@H]2CC[C@H](NC(=O)C3CCOCC3)[C@@H](CO)O2)nn1	18	10
NC(=O)C1=C[C@H](c2ccccc2)C[C@H](OCc2ccc(CO)cc2)O1	17	9
CNC[C@@H]1Oc2ccc(NC(=O)Nc3ccc(OC)cc3)cc2C(=O)N([C@H](C)CO)C[C@H]1C	5	-2
CC(C)NC(=O)N(C)C[C@@H]1OCCCC[C@@H](C)Oc2ccc(NC(=O)Nc3ccc(F)cc3)cc2C(=O)N([C@@H](C)CO)C[C@H]1C	20	14
CC(C)NC(=O)N(C)C[C@@H]1Oc2c(NS(=O)(=O)c3ccccc3)cccc2C(=O)N([C@@H](C)CO)C[C@@H]1C	3	5
C[C@H](NC(=O)N(C)C[C@H]1OCc2ccccc2-c2c(n(C)c3ccccc23)C(=O)N([C@H](C)CO)C[C@H]1C)c1ccccc1	-20	-17
COc1ccccc1S(=O)(=O)N1CC[C@@H]2[C@H]1c1cc(C#CC3CCCCC3)ccc1N[C@@H]2CO	-13	-7
COCC(=O)N1[C@@H]2Cn3c(ccc(-c4ccccc4)c3=O)[C@H]1[C@@H](C(=O)NCc1ccccn1)[C@@H]2CO	-6	3
O=C(O)[C@H]1[C@H](CO)[C@H]2Cn3c(ccc(/C=C/c4ccccc4)c3=O)[C@H]2N1C(=O)c1cnccn1	21	13
CN(C)CC(=O)N1[C@H](CO)[C@@H](c2ccc(-c3ccc(C(=O)N(C)C)cc3)cc2)[C@@H]1C#N	32	6
C[C@@H]1CCCCO[C@@H](CN(C)C(=O)C2CCCCC2)[C@@H](C)CN([C@@H](C)CO)C(=O)c2cc(NC(=O)Nc3ccc4c(c3)OCO4)ccc2O1	-1	-5
CO[C@@H]1CN(C)C(=O)c2cc(NC(=O)Nc3cc(F)ccc3F)ccc2OC[C@@H](C)N(C)C[C@@H]1C	-15	3
Going on with the list:
SMILES	Vaccinia stage	Vaccinia stage Venus
COCCNC(=O)c1cc2c(c(-c3cccc(-c4cccc(F)c4)c3)n1)[C@H](CCO)N(S(=O)C(C)(C)C)C2 (stereo not given in full)	2	7
C[C@H]1CN([C@@H](C)CO)C(=O)c2cc(NC(=O)CCN3CCOCC3)ccc2O[C@H]1CN(C)S(C)(=O)=O	1	1
CS(=O)(=O)N1[C@@H]2c3ccc(C4=CCCCC4)c(=O)n3C[C@H]1[C@H](CO)[C@H]2C(=O)N1CCCCC1	25	7
COc1ccc2c3c(n(C)c2c1)[C@H](CO)N(C(=O)C1CCC1)CC31CCN(Cc2cccc(F)c2)CC1	?	/
C[C@@H]1CCCCO[C@H](CN(C)C(=O)NC2CCCCC2)[C@@H](C)CN([C@H](C)CO)C(=O)c2cc(NC(=O)Nc3ccc(C(F)(F)F)cc3)ccc2O1	2	-7
COCC#Cc1cnc2c(c1)C(=O)N([C@@H](C)CO)C[C@H](C)[C@H](CN(C)C(=O)NC1CCCC1)O2	5	1
CCC(=O)N(C)C[C@@H]1Oc2ncc(-c3ccc(C)cc3)cc2C(=O)N([C@H](C)CO)C[C@H]1C	12	8
O=C(C[C@@H]1CC[C@@H]2[C@H](COC[C@H](O)CN2Cc2cccc(F)c2)O1)NCc1ccncc1	27	25
CCC(=O)N1C[C@@H](C)[C@@H](OC)CN(C)C(=O)c2ccc(NC(=O)c3ccno3)cc2OC[C@@H]1C	13	65
O=C(C[C@@H]1C[C@H]2c3cc(NC(=O)C4CCOCC4)ccc3O[C@H]2[C@@H](CO)O1)NCCN1CCCCC1	15	20
C[C@@H]1CCCCO[C@@H](CN(C)S(=O)(=O)c2ccc(F)cc2)[C@@H](C)CN([C@@H](C)CO)C(=O)c2cc(NS(=O)(=O)c3ccccc3)ccc2O1	-8	-8
CN(C)CCCNC(=O)C[C@H]1CC[C@@H](NC(=O)Cc2cccnc2)[C@@H](CO)O1	-5	6
CCCN(C)C[C@H]1Oc2cc(C#CC3CC3)ccc2S(=O)(=O)N([C@@H](C)CO)C[C@H]1C	-21	-19
CCCNC(=O)N1[C@@H](C#N)[C@H](c2ccc(-c3ccccc3F)cc2)[C@@H]1CO	?	/
COCC#Cc1ccc2c(c1)O[C@H](CN(C)CC1CCOCC1)[C@@H](C)CN([C@H](C)CO)S2(=O)=O	11	4
C[C@@H]1CCCCO[C@@H](CN(C)Cc2ccccc2)[C@@H](C)CN([C@H](C)CO)C(=O)c2cc(NC(=O)CCCN(C)C)ccc2O1	8	6
CC=Cc1ccc2n(c1=O)C[C@@H]1N[C@H]2[C@H](C(=O)NC2CCCCC2)[C@H]1CO (mixture of isomers)	0	-2
O=C(c1ccccc1F)N1CC(=O)N2[C@H](C1)[C@H](c1ccc(-c3ccc(F)cc3)cc1)[C@@H]2CO	-19	-41
O=C(C[C@H]1C[C@H]2c3cc(NC(=O)c4cccnc4)ccc3O[C@H]2[C@@H](CO)O1)NC1CCCC1	10	8
Cc1ccc(S(=O)(=O)Nc2ccc3c(c2)C(=O)N([C@@H](C)CO)C[C@@H](C)[C@@H](CN(C)Cc2ccncc2)OCCCC[C@@H](C)O3)cc1	-29	-26
COc1ccccc1C#Cc1ccc([C@H]2[C@H](C#N)N(C(=O)C3CCC3)[C@H]2CO)cc1	-31	-19
C[C@@H]1CN([C@H](C)CO)S(=O)(=O)c2ccc(C3=CCCC3)cc2O[C@@H]1CN(C)C(=O)c1ccc(F)cc1	5	4
N#Cc1ccc(-c2ccc([C@@H]3[C@H]4CNCC(=O)N4[C@H]3CO)cc2)cc1	3	6
O=C(C[C@H]1CC[C@@H](NC(=O)CCN2CCCCC2)[C@H](CO)O1)Nc1ccc(-c2ccccc2)cc1	-28	-11
COc1ccc(C#Cc2cnc3c(c2)C(=O)N([C@H](C)CO)C[C@H](C)[C@H](CN(C)S(=O)(=O)c2cn(C)cn2)O3)cc1OC	6	2
C[C@@H]1CN([C@H](C)CO)C(=O)Cc2cc(NS(C)(=O)=O)ccc2O[C@@H]1CN(C)S(=O)(=O)c1ccccc1	33	21
COC(=O)C1(N2CC3=C[C@@H]([C@@H](O)Cc4ccccc4)n4c(=O)n(C)c(=O)n4[C@@H]3[C@@H](C3CC3)O2)CCCC1	5	-3
COCC(=O)Nc1ccc2c(c1)C(=O)N(C)C[C@H](OC)[C@H](C)CN(C(=O)c1ccncc1)[C@H](C)CO2	6	8

Shown with bars between the fields: entries from further up.
smiles | Vaccinia stage | Vaccinia stage Venus
CN(C)CCCNC(=O)C[C@H]1CC[C@@H](NC(=O)Cc2cccnc2)[C@@H](CO)O1 | -5 | 6
CCCN(C)C[C@H]1Oc2cc(C#CC3CC3)ccc2S(=O)(=O)N([C@@H](C)CO)C[C@H]1C | -21 | -19
CCCNC(=O)N1[C@@H](C#N)[C@H](c2ccc(-c3ccccc3F)cc2)[C@@H]1CO | ? | /
COCC#Cc1ccc2c(c1)O[C@H](CN(C)CC1CCOCC1)[C@@H](C)CN([C@H](C)CO)S2(=O)=O | 11 | 4
C[C@@H]1CCCCO[C@@H](CN(C)Cc2ccccc2)[C@@H](C)CN([C@H](C)CO)C(=O)c2cc(NC(=O)CCCN(C)C)ccc2O1 | 8 | 6
CC=Cc1ccc2n(c1=O)C[C@@H]1N[C@H]2[C@H](C(=O)NC2CCCCC2)[C@H]1CO (mixture of isomers) | 0 | -2
O=C(c1ccccc1F)N1CC(=O)N2[C@H](C1)[C@H](c1ccc(-c3ccc(F)cc3)cc1)[C@@H]2CO | -19 | -41
O=C(C[C@H]1C[C@H]2c3cc(NC(=O)c4cccnc4)ccc3O[C@H]2[C@@H](CO)O1)NC1CCCC1 | 10 | 8
Cc1ccc(S(=O)(=O)Nc2ccc3c(c2)C(=O)N([C@@H](C)CO)C[C@@H](C)[C@@H](CN(C)Cc2ccncc2)OCCCC[C@@H](C)O3)cc1 | -29 | -26
COc1ccccc1C#Cc1ccc([C@H]2[C@H](C#N)N(C(=O)C3CCC3)[C@H]2CO)cc1 | -31 | -19
